VDR inh: Inhibitors of the vitamin D receptor (VDR): qHTS | Vitamin D3 receptor (Homo sapiens), P11473 | VDR-SRC2-3 peptide fluorescence polarization, 2 h | Potency, µM, for inactives: max response, negative = inhibition, hits mostly inhibitors | hit rate 0.93% among 400,000; active means well fitted inhibition curve with a large enough effect; inconclusive means small, poorly fitted or top-dose-only effect, or another doubt; inactive means no such curve, though single readings can be large or run the other way; further: series mostly up to about 120 µM
Target sequence (P11473 whole entry, looked up): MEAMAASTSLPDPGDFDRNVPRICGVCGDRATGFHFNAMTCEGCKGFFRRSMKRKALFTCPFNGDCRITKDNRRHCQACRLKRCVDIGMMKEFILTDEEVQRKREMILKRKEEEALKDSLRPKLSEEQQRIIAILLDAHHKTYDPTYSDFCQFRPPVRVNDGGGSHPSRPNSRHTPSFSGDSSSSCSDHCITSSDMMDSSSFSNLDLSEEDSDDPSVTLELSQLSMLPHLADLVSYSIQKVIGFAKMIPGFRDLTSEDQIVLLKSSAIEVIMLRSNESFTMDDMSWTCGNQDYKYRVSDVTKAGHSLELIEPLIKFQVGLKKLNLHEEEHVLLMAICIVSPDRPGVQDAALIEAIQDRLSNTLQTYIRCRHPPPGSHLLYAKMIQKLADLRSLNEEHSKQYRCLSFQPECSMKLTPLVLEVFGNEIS
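Fluorescence polarization assay measuring small-molecule disruption of VDR binding to the coregulator peptide SRC2-3. Compounds were pin-transferred (23 nl) into the reagent mix and incubated 2 h at room temperature before reading.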
Active calls of the source: *; ? = inconclusive; & = joins results of further samples. On the % scale 0 is the no-effect control and ±100 the full control effect; potency means the concentration at half of the fitted maximal effect. A portion of the library; count on the stated rates, not on these rows.

SMILES	VDR inh
CCC(C)NC(=O)CN1C(=O)COc2ccc(S(=O)(=O)N3CCOCC3)cc21 (configuration not stated)	10.2%&-2.5%
CC(C)N(C(=O)C[n+]1ccc(/C=N/O)cc1)C(C)C	1.0%
CC(Sc1ccccn1)C(=O)Nc1ccc(S(N)(=O)=O)cc1 (configuration not stated)	-7.5%
CN(CC(=O)Nc1ccccc1C(F)(F)F)C(=O)COc1ncnc2sccc12	5.2%
CCc1ccc(NC(=O)NNC(=O)c2cc3ccccc3cc2O)cc1	-15.7%
CCn1c(=O)c(C(=O)NNS(=O)(=O)c2ccc(Br)cc2)c(O)c2ccccc21	-1.4%
O=C1C(=O)N(CCN2CCOCC2)C(c2ccccn2)/C1=C(/O)c1ccccc1 (configuration not stated)	-18.9%
CCCCCOC(=O)Cn1c(=O)oc2ccccc21	-2.7%
COc1ccc([C@H]2CC(=O)C=C(c3ccc(C)c(F)c3)C2)cc1	-8.6%
O=C1CNC(=O)N1CC(O)Cn1c2ccccc2c2ccccc21 (configuration not stated)	8.3%
Cc1ccccc1S(=O)(=O)Cc1ccc(C(=O)N2CCN(c3cccc(Cl)c3)CC2)o1	-11.3%
CCC(C)(C)n1c(=O)[nH]c2c(c1=O)CCC2	0.1%
CC(C)(C)C(=O)NNC(=O)COc1ccc2ccccc2c1Br	4.8%
CCn1c(=O)c(CCC(=O)NCCN2CCOCC2)c(C)c2c(C)nn(-c3ccccc3)c21	-2.9%
CCOC(=O)C(C)Sc1nc(-c2ccccn2)ncc1OC (configuration not stated)	7.9%
Oc1c(C(c2ccccc2)N2CCC3(CC2)OCCO3)sc2nc(-c3ccco3)nn12 (configuration not stated)	8.5%
Cc1cc2n(n1)CCCN2C(=O)Nc1ccccc1F	1.8%
CSc1ccccc1NC(=O)c1cc(C(C)C)on1	27.8%
COc1ccc(/C=C/C(=O)N(CCC(N)=O)c2ccccc2)cc1S(=O)(=O)N1CCOCC1	5.8%
CC(C)N(CC#CC(O)(c1ccccc1)c1ccccc1)CCO	1.9%
CC(C)(C)c1ccc(C(=O)N/C(N)=N/c2nc3ccccc3o2)cc1	10.7%
O=C(Cn1cnc2c(NCc3ccccc3)ncnc21)NCc1ccc2c(c1)OCO2	-27.5%
COc1ccc(C(=O)c2ccc(Cl)cc2)c2ccccc12	0.3%
Cc1ccc(NC(=O)CN2C(=O)c3cccnc3Sc3ccccc32)cc1C	6.9%
COc1cc(OC)c(C(=O)Nc2ccccc2-c2ccccc2)cc1OC	-11.3%
CN(CCc1ccccc1)C(=O)c1ccc(NC(=O)Cc2ccc(NC(=O)C3CCN(C(=O)C4CCCCC4)CC3)cc2)cc1	-6.2%
Cc1noc(C)c1COc1cccc(C(=O)OCC(=O)NC(=O)c2ccc(OC(F)F)cc2)c1	1.6%
CCCCOc1ccc(C(=O)NNC(=S)NC(=O)CC)cc1	?
Cc1cc2c(cc1S(=O)(=O)CCC(=O)N1CCCC(C)C1)OCC(=O)N2 (configuration not stated)	-7.8%
Cc1cccc(NC(=S)NCCCN2CCOCC2)c1	18.7%
Cc1c(CBr)[n+](=O)c2c(n1[O-])C(Br)CCC2Br (configuration not stated)	35.5µM*
CC(C)C[C@H](NC(=O)N1CCn2c1nc1ccccc12)C(=O)NCc1ccco1	-13.2%
CCOC(=O)C1CCCN(Cc2cc(=O)oc3cc(C)c(C)cc23)C1 (configuration not stated)	-5.8%
O=C1NC[C@H](Cc2ccccc2)N(C[C@H]2CCCN2C[C@H](Cc2ccccc2)N2C[C@H](Cc3ccccc3)N(CCc3ccccc3)C(=O)C2=O)C1=O	-12.7%
COc1ccc(OC)c2nc(-c3ccncc3)ccc12	17.3%
O=C(NCCS(=O)(=O)N1CCC2(CC1)OCCO2)c1ccc(F)cc1	4.6%
Cc1ccc(Cl)cc1NC(=O)C1CCCN(S(=O)(=O)c2c(C)noc2/C=C/N(C)C)C1 (configuration not stated)	-11.3%
Cc1ccc(N/C(N)=N/c2nc3c(c(=O)[nH]2)CCCC3)c(C)c1	-5.3%
S=C1NC2(CCCC2)Nc2ccccc21	8.1%
COc1ccc(N(CC(=O)Nc2cc(OC)ccc2OC)S(=O)(=O)c2c(C)noc2C)cc1	5.5%
CCOC(=O)c1sc(=NC(=O)c2ccc(OC(C)C)cc2)n(C)c1C	-11.9%
S=C(NCCc1ccccc1)Nc1cccc2cnccc12	-13.1%
COc1cccc(N2C(=NC(=O)COc3ccccc3)SC3CS(=O)(=O)CC32)c1 (configuration not stated)	2.8%
CCCCn1nc(C(=O)Nc2cccc(C(=O)NC3CC3)c2)c2ccccc2c1=O	-7.8%
CCOCC(=O)Nc1cc(OC)c(Cl)cc1OC	2.5%
CCCC(=O)C1=C(N(C)c2ccccc2)CC(C)(C)CC1=O	1.6%
CCN(C(=O)CSc1nnc2nc(C)cc(C)n12)c1ccccc1	-11.5%
CC(C)(C)c1ccc(OCc2ccc(C(=O)N/N=C/c3ccc(O)c(O)c3)cc2)cc1	-6.2%
O=C(C1=C[C@H](c2ccc(C(F)(F)F)cc2)C[C@H](OCCCCO)O1)N1CCN(Cc2ccc3c(c2)OCO3)CC1	-14.2%
c1ccc(N2CCN(c3ccc4nncn4n3)CC2)nc1	-10.9%
(further entries)
SMILES	VDR inh
CCSc1nnc(NS(=O)(=O)c2ccc(OC)cc2)s1	-5.3%
O=C(CN1C(=O)C2(OCCO2)c2ccccc21)c1ccc(Br)cc1	2.7%
COc1ccc(CN2CCN(c3ccccn3)CC2)c(OC)c1C	-12.5%&3.6%
O=C(O)c1ccccc1NC(=O)C(c1ccccc1)c1ccccc1	14.4%
COc1ccc(NC2CC(=O)N(c3cccc(C)c3)C2=O)cc1 (configuration not stated)	-2.8%
Cc1ccc(-c2ccc(SCC(=O)Nc3cc(C)on3)nn2)cc1	-15.3%
CC(C)OCCCn1c(=O)c2ccccc2n2c(-c3ccccc3)nnc12	11.2%
NC(=O)C[n+]1cccc(C(N)=O)c1	-4.0%
C=C(C(=O)OCC)C(=O)c1ccccc1	-0.2%
Cc1ccc(S(=O)(=O)N2CCCCC2)cc1NC(=O)CSc1nccn1C	10.1%
CCOC(=O)C1=C(C)Nc2ccccc2N=C1NC(=O)Cc1ccc(Cl)c(Cl)c1	11.4%
CN(Cc1ccccc1)C(=O)COc1ccc(-c2nnco2)cc1	?
CC(=O)c1ccc(S(=O)(=O)N2CCN(CCOc3ccc(Br)cc3)CC2)cc1	5.5%
COc1ccc(NC(=O)C2=C(C)Nc3ncnn3C2c2ccccn2)cc1 (configuration not stated)	-3.1%
Cc1ccc(S(=O)(=O)c2c(N)n(-c3ccccc3)c3nc4ccccc4nc23)cc1	-7.4%
O=S(=O)(c1cccc(-n2cnnn2)c1)N1CCOCC1	3.0%
O=C(Nc1ccccc1C(=O)Nc1ccccn1)c1cccc([N+](=O)[O-])c1	-5.8%
COc1ccc(OC)c(N/C(C)=C/C(=O)c2ccc(Br)cc2)c1	-7.8%
COC(=O)c1ccc(N2CCOCC2)c(NC(=O)c2ccc(Br)o2)c1	3.3%
Cc1ccccc1OCCC(=O)Nc1ccccc1C(=O)N1CCCCC1	-24.9%
COc1cc(C)c2occ(/C(C)=N\O)c2c1	-3.1%
O=C(N/N=C/c1ccccc1Cl)c1nc2ccc([N+](=O)[O-])cc2c(=O)[nH]1	?
O=C(CCN1CCN(S(=O)(=O)c2cccc([N+](=O)[O-])c2)CC1)Nc1ccccc1F	-26.8%
COCCn1nnnc1C(c1ccc(OC)c(OC)c1)N1CCc2ccccc21 (configuration not stated)	-8.6%
COc1cc(NC(=O)CCN2CCN(C/C=C/c3ccccc3)CC2)cc(OC)c1	-2.2%
CC(C)(C)[C@H]1COC(=O)[C@H](Cc2ccc(F)cc2)CC/C=C/C[C@@H](CC(=O)N[C@H](CO)Cc2ccccc2)C(=O)N1	10.5%
CCCc1ccc(-c2cc(C(=O)Nc3ccc([N+](=O)[O-])cn3)c3ccccc3n2)cc1	-6.5%
CCOc1ccc(CCNC(=O)c2ccc(Cn3c(=O)c4cccn4c4cccnc43)cc2)cc1	10.0%
COc1ccc(CNC(=O)CN2CCSc3ccccc32)c(OC)c1	0.6%
COc1ccccc1NC(=O)CN(C)S(=O)(=O)c1ccc2c(c1)c(=O)n(C)c(=O)n2C	3.6%
CCOc1ccc(Br)cc1S(=O)(=O)Nc1cccc(S(=O)(=O)N(CC)CC)c1	1.8%
CC1CCCCN1CCCNc1ccc(C(CC(N)=O)NC(=O)c2ccccc2)cc1[N+](=O)[O-] (configuration not stated)	1.3%
Clc1ccc(C2=NOC(c3nnc(-c4ccccc4)o3)C2)cc1 (configuration not stated)	-26.8%
C[C@@H]1O[C@@H](Oc2c(-c3cc(O)c(O)c(O)c3)oc3cc(O)cc(O)c3c2=O)[C@H](O)[C@H](O)[C@H]1O	-14.7%&-3.2%
O=C(c1cc(C2CC2)on1)N1CCN(c2ccc(F)cc2)CC1	-2.0%
Cc1ccc2cc(-c3noc(C4CCCCC4)n3)c(=O)[nH]c2c1	-0.4%
COc1ccccc1NS(=O)(=O)c1cccc(C(=O)NCc2ccncc2)c1	-6.5%
CN(C(=O)COC(=O)c1cccnc1Nc1ccccc1F)C1CCS(=O)(=O)C1 (configuration not stated)	10.8%
CCOC(=O)[C@H]1[C@H]2COc3ccc(Cl)cc3[C@@H]2N2C(=O)c3cc(OC)ccc3NC(=O)[C@@]12C	-16.5%
COc1ccc(NCc2ccc(OC)c(Cn3ccnc3)c2)c(OC)c1	?

VDR inh, what is marked active above
SMILES	VDR inh
Cc1c(CBr)[n+](=O)c2c(n1[O-])C(Br)CCC2Br (configuration not stated)	35.5µM*

Following part.
SMILES	VDR inh
CC(=O)NCCCC[C@H](NC(=O)OC(C)(C)C)C(=O)Nc1ccc2c(C(F)(F)F)cc(=O)oc2c1	-1.2%
O=C(Nc1ccc2nc(SCC(=O)N3CCOCC3)sc2c1)c1ccccc1Cl	15.4%
COc1ccc(CCNC(=O)CCNC(=O)c2ccccc2Cl)cc1	-5.9%
COc1ccc(OC)c(C2C(C(C)=O)=C(O)C(=O)N2CCC(=O)O)c1 (configuration not stated)	-5.7%
CCC1CCCCN1C(=O)COC(=O)c1cc(C)nc2ccccc12 (configuration not stated)	-4.0%
O=C(CS(=O)(=O)c1ccc(F)cc1)N1CCOCC1	25.7%
COc1ccc(Nc2nnc(-c3ccc(O)cc3)c3ccccc23)cc1	2.0%
CC1CC(C)CN(C(=O)CCCn2c(=O)c3cccn3c3cccnc32)C1 (configuration not stated)	22.7%
CCN1CCN(c2ncc3c(n2)CC(c2ccccc2O)CC3=O)CC1 (configuration not stated)	11.0%
O=C1c2ccccc2CC1(Cc1ccccc1)Cc1ccccc1	-9.2%

A stretch of the results above, for reference:
SMILES	VDR inh
CC(=O)NCCCC[C@H](NC(=O)OC(C)(C)C)C(=O)Nc1ccc2c(C(F)(F)F)cc(=O)oc2c1	-1.2%
O=C(Nc1ccc2nc(SCC(=O)N3CCOCC3)sc2c1)c1ccccc1Cl	15.4%
COc1ccc(CCNC(=O)CCNC(=O)c2ccccc2Cl)cc1	-5.9%
COc1ccc(OC)c(C2C(C(C)=O)=C(O)C(=O)N2CCC(=O)O)c1 (configuration not stated)	-5.7%
CCC1CCCCN1C(=O)COC(=O)c1cc(C)nc2ccccc12 (configuration not stated)	-4.0%
O=C(CS(=O)(=O)c1ccc(F)cc1)N1CCOCC1	25.7%
COc1ccc(Nc2nnc(-c3ccc(O)cc3)c3ccccc23)cc1	2.0%

More records:
SMILES	VDR inh
CC(C)(C)N1C(=O)c2ccc(C(=O)O)cc2C1=O	-8.5%
COc1cc(NC(=O)CSc2nnc3ccc(-c4cccnc4)nn23)cc(OC)c1	8.5%
COc1cccc(CNC(=O)COC(=O)/C(C#N)=C/c2ccc(N(C)C)cc2)c1	14.5%
O=C(COc1ccc2c(c1)CCC2)N1CCc2ccccc21	?
O=C(CC1N=C2c3ccccc3N=C(SCC(=O)Nc3ccc(F)cc3)N2C1=O)NCc1ccco1 (configuration not stated)	18.1%
CC1(C)Cc2c(sc(NC(=O)C(=O)N3CCCCC3)c2C(=O)O)CO1	?
COCCNC(=O)CNC(=O)c1nn(-c2ccc(OC)c(Cl)c2)c(=O)c2ccccc12	-12.6%
CC(=O)N1c2ccc(S(=O)(=O)NCC3CCC(C(=O)NC4CCCCC4C)CC3)cc2CC1C (configuration not stated)	-18.2%
C/C(=N\Nc1ccc(S(N)(=O)=O)cc1[N+](=O)[O-])c1ccccc1O	-0.6%
Cc1ccccc1Oc1ccc2c(c1)[C@@H]1C[C@H](N(C)C(=O)Nc3cc(Cl)cc(Cl)c3)[C@H]([C@H](C)O)C(=O)N1CC2	-2.0%

Exported bar-delimited: entries from further up.
compound | VDR inh
O=C(O)c1ccccc1NC(=O)C(c1ccccc1)c1ccccc1 | 14.4%
Cc1ccccc1Oc1ccc2c(c1)[C@@H]1C[C@H](N(C)C(=O)Nc3cc(Cl)cc(Cl)c3)[C@H]([C@H](C)O)C(=O)N1CC2 | -2.0%

Remaining list, next part.
SMILES	VDR inh
CC(=O)N(c1ccccc1)C1CCCC1	-17.4%
Cc1nnc2n1N=C(c1ccc3c(c1)NC(=O)CO3)CS2	-0.4%
COc1cc(OC)c(C(=O)NNC(=S)NC2CCCCC2)cc1OC	-23.5%
COc1cc(C(=O)NCc2cccnc2)ccc1OCC(=O)Nc1cccc(C(F)(F)F)c1	11.3%
CCCNC(=S)NC1CCCC1	-1.2%
CCn1c2ccccc2c2nnc(SCN3C(=O)c4ccccc4C3=O)nc21	-19.8%
CC(NS(=O)(=O)c1ccc(Br)cc1)c1ccccc1 (configuration not stated)	-1.5%
Cc1cccc(N2C(=O)CC(Sc3nnc(C)s3)C2=O)c1 (configuration not stated)	-18.0%
Cn1c(CC(=O)NNC(=O)c2ccccc2[N+](=O)[O-])nc2ccccc21	-9.7%
Cc1ccc(CNC(=O)CSc2nnc(CNC(=O)c3ccccc3)o2)cc1	5.2%
COc1ccc(CCC(=O)OCc2csc(CC(=O)Nc3ccc(C)cc3)n2)cc1OC	1.4%

Assay outcomes from PubChem.
